CDC25B-CDK2 inh – human CDC25B-CDK2/CyclinA binding inhibition; P30305+P24941; HTRF CDC25B-CDK2/CyclinA binding, anti-His/anti-Flag; stronger effect = higher value; z-score (test concentration not listed); 94,000 tested, 0.72% active;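 further: score is relative to mean and SD of negative controls; strong numbers were not always called active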
TAR Tat displ – HIV-1 TAR-Tat binding disruption. z-score (test concentration not listed). HIV-1 TAR RNA, Tat peptide displacement FRET; stronger effect = higher value. 100,000 tested, 0.6% active;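 further: score is relative to mean and SD of negative controls; some compounds called inactive have numbers as strong as hits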
* marks the source's active call; other numbers are inactive results.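 How the source made its calls: active means z-score from 3 up in half or more of its runs; inactive means the rest.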

For CCC(=O)N1c2nc(C(C)C)nn2C2(CCCCC2)[C@@H]2CCCC[C@@H]21 the results were CDC25B-CDK2 inh 1.3 and TAR Tat displ 1.4.
COc1cccc(CSc2nnc(C)n3c2cc2sccc23)c1 was read as TAR Tat displ 3.9.
Screening Cc1ccc(N2C(=O)C3C4c5ccccc5C(C(=O)O)(c5ccccc54)C3C2=O)cc1Cl (stereo unspecified) returned CDC25B-CDK2 inh -1.6 and TAR Tat displ 0.54.
For Cn1c(=O)n(C)c2cc3c(cc21)nnn3Cc1ccccc1 the results were CDC25B-CDK2 inh -0.7 and TAR Tat displ 1.5.
For Cc1cc(C)nc(NS(=O)(=O)c2ccc(NC(=O)CSc3nc4c(cc3C#N)CCC4)cc2)n1 the results were CDC25B-CDK2 inh -2.7 and TAR Tat displ 0.61.
Cc1ccc(S(=O)(=O)N(CCC#N)Cc2cccnc2)cc1 was read as CDC25B-CDK2 inh -2.
For O=C(Nc1nnc(-c2ccc3c(c2)CCCC3)o1)c1ccc2c(c1)OCCO2 the results were TAR Tat displ 0.97.
For CCOC(=O)c1ccc(NS(=O)(=O)c2c(C)nc3sccn3c2=O)cc1 the results were TAR Tat displ 2.5.
For CC1(C)CC(=O)C2=C(C1)Nc1n[nH]c(-c3ccccc3)c1C2c1ccccc1Cl (stereo unspecified) the results were CDC25B-CDK2 inh -0.56 and TAR Tat displ -1.1.
Screening O=C(Cn1ncc2c([nH]c3ccccc32)c1=O)NCCCN(Cc1ccco1)C1CCCC1 returned TAR Tat displ 0.53.
CC(C)NC(=O)C1c2ccccc2C(=O)N(C2CCCC2)C1c1cccs1 (stereo unspecified) was read as TAR Tat displ -0.28.
`O=C(NNC(=NS(=O)(=O)c1ccccc1)NNC(=O)c1ccc(F)cc1)c1ccc(F)cc1` gave CDC25B-CDK2 inh -1.9.
For CCOCCOC(=O)C1=C(C)NC2=C(C(=O)CC(C)(C)C2)C1c1cccc(Br)c1 (stereo unspecified) the results were CDC25B-CDK2 inh 0.15 and TAR Tat displ -0.6.
`Cc1nccn1CC(O)COc1ccc(Br)cc1` (stereo unspecified) gave CDC25B-CDK2 inh -1.2.
For C=CCNC(=O)CSc1nc2c(cnn2-c2ccc(Cl)cc2)c(=O)[nH]1 the results were TAR Tat displ 0.26.
`Cc1nn(C)c(C)c1CNS(=O)(=O)c1ccccc1` gave TAR Tat displ 1.2.
Screening CC1=C(C(=O)OCC(C)C)C(c2cccc(F)c2)C2=C(CC(c3cccs3)CC2=O)N1 (stereo unspecified) returned CDC25B-CDK2 inh -0.26 and TAR Tat displ 0.86.
COc1ccc(OC)c2[nH]c(=O)c(CCNC(=O)C(C)(C)C)cc12 was read as CDC25B-CDK2 inh -0.98.
Screening O=S(=O)(c1ccc(-n2cnnn2)cc1)N1CCN(c2ccccc2)CC1 returned CDC25B-CDK2 inh -1.1 and TAR Tat displ -0.73.
For O=C(Cn1ncc2c(Cl)cccc21)NCCN1CCOCC1 the results were CDC25B-CDK2 inh -1.9 and TAR Tat displ 1.2.

The list goes on (six carried over from the part before).
For C=CCNC(=O)CSc1nc2c(cnn2-c2ccc(Cl)cc2)c(=O)[nH]1 the results were TAR Tat displ 0.26.
`Cc1nn(C)c(C)c1CNS(=O)(=O)c1ccccc1` gave TAR Tat displ 1.2.
Screening CC1=C(C(=O)OCC(C)C)C(c2cccc(F)c2)C2=C(CC(c3cccs3)CC2=O)N1 (stereo unspecified) returned CDC25B-CDK2 inh -0.26 and TAR Tat displ 0.86.
COc1ccc(OC)c2[nH]c(=O)c(CCNC(=O)C(C)(C)C)cc12 was read as CDC25B-CDK2 inh -0.98.
Screening O=S(=O)(c1ccc(-n2cnnn2)cc1)N1CCN(c2ccccc2)CC1 returned CDC25B-CDK2 inh -1.1 and TAR Tat displ -0.73.
For O=C(Cn1ncc2c(Cl)cccc21)NCCN1CCOCC1 the results were CDC25B-CDK2 inh -1.9 and TAR Tat displ 1.2.
`CCc1c(C(C)O)oc2ccc3c(C)cc(=O)oc3c12` (stereo unspecified) gave CDC25B-CDK2 inh -0.42.
Cc1ccc(Nc2c3c(nc4ncnn24)CCCC3)cc1 was read as TAR Tat displ 0.48.
O=C(CC1(O)C(=O)Nc2ccc(Br)cc21)c1ccccn1 (stereo unspecified) was read as CDC25B-CDK2 inh -1.8 and TAR Tat displ -1.8.
`O=C(NCc1csc(-c2cccs2)n1)C1=Cc2ccccc2OC1` gave CDC25B-CDK2 inh -0.38.
Screening O=C(Nc1ccc2c(c1)OCCO2)c1[nH]nc2c1CSc1ccccc1-2 returned TAR Tat displ 0.18.
`CSc1ccc(NC(=O)NC2CCN(c3ncccn3)CC2)cc1` gave CDC25B-CDK2 inh -0.56 and TAR Tat displ 0.14.
For O=c1cc2nc(-c3cccs3)nc(SCc3ccc(Br)cc3)n2[nH]1 the results were TAR Tat displ 27*.
For Cn1c(SCc2nc(-c3cccs3)no2)nnc1-c1ccc(Cl)cc1 the results were CDC25B-CDK2 inh 0 and TAR Tat displ 1.7.
Cc1c(/C=C/c2nc3ccccc3c(=O)n2CCCO)c2ccccc2n1Cc1ccccc1 was read as CDC25B-CDK2 inh 1.8 and TAR Tat displ -0.34.
For CCN(CC)CCSc1nc(O)c(C)c(=O)[nH]1 the results were CDC25B-CDK2 inh 0.03 and TAR Tat displ 0.43.
Screening COc1cc(NC(=O)c2noc3ncnc(N4CCOCC4)c23)cc(OC)c1 returned TAR Tat displ -1.5.
For CSC1=C(C#N)C(c2ccc(C)cc2)CC(=O)N1 (stereo unspecified) the results were CDC25B-CDK2 inh 0.84 and TAR Tat displ 0.19.
CC1CCCC(C)N1CCNC(=O)c1cc2ccc3cccnc3c2[nH]1 (stereo unspecified) was read as TAR Tat displ 1.4.
`O=C(OCc1cc(=O)n2nc(C3CCCCC3)sc2n1)c1ccc(Cl)cc1` gave TAR Tat displ -1.8.
CCOc1ccc(NC(=O)C(Nc2ccc(OCC)cc2)c2ccccc2)cc1 (stereo unspecified) was read as CDC25B-CDK2 inh -1.
`Cc1ccc(OCc2cc(=O)n3nc(C)sc3n2)c(C)c1` gave CDC25B-CDK2 inh -1.7 and TAR Tat displ -0.78.
Screening CC1=CS(=O)(=O)CC1Sc1nc2ccccc2[nH]1 (stereo unspecified) returned CDC25B-CDK2 inh 0.27.
`Cc1coc2cc3oc(=O)c(CC(C)C)c(C)c3cc12` gave CDC25B-CDK2 inh 0.1.
Screening Cc1nc(N2CCCC2)ncc1C(=O)NCCCN1CCOCC1 returned TAR Tat displ 2.9.
COc1ccc(-c2nc3c4c(C)c(C)n(-c5ncccc5C)c4ncn3n2)cc1OC was read as CDC25B-CDK2 inh -1.4 and TAR Tat displ 0.31.

Quoted at random: 4 entries already listed
For CCN(CC)CCSc1nc(O)c(C)c(=O)[nH]1 the results were CDC25B-CDK2 inh 0.03 and TAR Tat displ 0.43.
For O=c1cc2nc(-c3cccs3)nc(SCc3ccc(Br)cc3)n2[nH]1 the results were TAR Tat displ 27*.
CCOc1ccc(NC(=O)C(Nc2ccc(OCC)cc2)c2ccccc2)cc1 (stereo unspecified) was read as CDC25B-CDK2 inh -1.
`Cc1coc2cc3oc(=O)c(CC(C)C)c(C)c3cc12` gave CDC25B-CDK2 inh 0.1.

(cont.)
Screening C=C(C)c1cccc(C(C)(C)NC(=O)NCCc2ccc(S(N)(=O)=O)cc2)c1 returned CDC25B-CDK2 inh -0.63 and TAR Tat displ 0.78.
`CCOc1ccc(N(C)S(=O)(=O)c2ccc(-c3ccc(=O)[nH]n3)s2)cc1` gave TAR Tat displ -0.22.
Screening CC(C)[C@H](N)C(=O)N[C@@H](Cc1c[nH]c2ccccc12)C(=O)O returned TAR Tat displ 2.
COc1ccc(CNS(=O)(=O)c2cc(-c3cnc(C4CC4)o3)ccc2C)cc1 was read as TAR Tat displ -0.64.
Screening COC(=O)c1nnn(-c2ccc(F)cc2)c1N returned CDC25B-CDK2 inh -2.2 and TAR Tat displ -0.63.
For CC1=C(c2cccc(Br)c2)S(=O)(=O)NC1=NCc1ccccn1 the results were CDC25B-CDK2 inh -1.7 and TAR Tat displ -1.2.
CCCCC(=O)N1c2ccccc2NC2=C(C(=O)CC(C)(C)C2)C1c1cccs1 (stereo unspecified) was read as CDC25B-CDK2 inh -0.2 and TAR Tat displ 2.1.
Screening O=C1CCSc2ccc(S(=O)(=O)N(Cc3cccs3)C3CCCCC3)cc2N1 returned TAR Tat displ -0.23.
O=S(=O)(NC1CC1)c1ccc2[nH]c3c(c2c1)CCCCC3 was read as TAR Tat displ 0.82.
COc1cc(NC(=O)CCc2nnc3ccc(NCc4ccco4)nn23)cc(OC)c1 was read as TAR Tat displ 0.7.
For COc1cc(NS(=O)(=O)c2ccc3c(c2)OCC(C(=O)N2CCOCC2)O3)cc(OC)c1 (stereo unspecified) the results were TAR Tat displ 0.31.
Screening O=C(Nc1nccs1)c1cccc(N2C(=O)CCS2(=O)=O)c1 returned CDC25B-CDK2 inh -1.3 and TAR Tat displ 0.82.
Screening CCOC(=O)N1CCN(c2c(NC(C)CC)c(=O)c2=O)CC1 (stereo unspecified) returned CDC25B-CDK2 inh -0.74 and TAR Tat displ -0.05.
For COc1ccc(CNc2ncnc3onc(-c4ccc(F)cc4)c23)cc1 the results were TAR Tat displ -0.69.
Screening O=C1CCSc2c1cccc2C(=O)N1CCCC1 returned TAR Tat displ 2.3.
Screening CCc1ccc(S(=O)(=O)c2nnn3c2nc(NC(C)C)c2sccc23)cc1 returned TAR Tat displ 0.12.
Screening COc1ccc(/C=C2\CN(C)C/C(=C\c3ccc(OC)cc3)C2=O)cc1 returned CDC25B-CDK2 inh -1.5.
`Cc1ccc(Cl)c(OCC(O)Cn2cnc3ccccc32)c1` (stereo unspecified) gave CDC25B-CDK2 inh -2.2 and TAR Tat displ 2.1.
Cc1cc(Br)c2[nH]c(O)c(N=Nc3nnc4c(n3)[nH]c3ccc(C)cc34)c2c1 was read as CDC25B-CDK2 inh -0.9.
For Clc1ccc(CCNc2cnnc3c(Cl)cccc23)cc1 the results were TAR Tat displ 1.2.
`Cc1cc2n(n1)CCC(=O)N2CC(=O)NC1CCCC1` gave TAR Tat displ 1.6.
`O=S(=O)(O)c1ccc(N=Nc2ccc(O)cc2O)cc1` gave CDC25B-CDK2 inh 1.2.
Cc1cc2c3c([nH]c2cc1S(=O)(=O)NCc1cccnc1)CC(C)(C)CC3=O was read as TAR Tat displ 0.6.
For Cn1nc(C(=O)N2CCCCC2)c2c1-c1ccccc1S(=O)(=O)C2 the results were CDC25B-CDK2 inh -0.82 and TAR Tat displ 1.2.
For COc1ccc(C2C(C#N)=C(N)OC3=C2C(=O)CC(C)(C)C3)cc1 (stereo unspecified) the results were CDC25B-CDK2 inh -0.16.
Cc1c(C(=O)O)cc(-c2ccccc2)n1CCSCCO was read as CDC25B-CDK2 inh -2.
O=C(CC1(O)C(=O)N(Cc2ccc(Cl)cc2)c2ccccc21)c1ccc(Br)cc1 (stereo unspecified) was read as CDC25B-CDK2 inh -2.7.
O=C1CCCN2N=C(SCC(=O)Nc3ccc4c(c3)OCCO4)SC2=N1 was read as CDC25B-CDK2 inh -1.6.
`Cc1noc(-c2ccc(C)c(S(=O)(=O)Nc3ccccc3)c2)n1` gave TAR Tat displ 1.3.
Screening CCOC(=O)c1c(NC(=O)C2c3ccccc3Oc3ccccc32)sc(C(=O)N(C)C)c1C returned CDC25B-CDK2 inh 0.71.
`Cc1nnsc1C(=O)O/N=C(/N)COc1ccc(C2SCCS2)cc1` gave CDC25B-CDK2 inh -1.5.
For COc1ccc(-c2nnc3c4c(cnn23)nnn4Cc2ccccc2Cl)cc1 the results were CDC25B-CDK2 inh -0.64 and TAR Tat displ 1.5.
For Cn1cc(-c2cc3n(n2)CCC(=O)N3CC(=O)NCCCN2CCCC2=O)c2ccccc21 the results were TAR Tat displ 0.05.
COc1cc2ncc(S(=O)(=O)c3ccc(C)cc3)c(Nc3ccc4c(c3)OCO4)c2cc1OC was read as CDC25B-CDK2 inh 0.68 and TAR Tat displ 1.9.
For O=C(CN1c2ccccc2NC2=C(C(=O)CCC2)C1c1ccco1)Nc1ccccc1Cl (stereo unspecified) the results were TAR Tat displ -9.3.
Screening CCOC(=O)c1[nH]c(C)c(CCC(=O)OC)c1C returned CDC25B-CDK2 inh -1.5 and TAR Tat displ 2.5.
For C#CCN1C(=O)C(=O)c2ccccc21 the results were CDC25B-CDK2 inh -0.98 and TAR Tat displ 1.1.
COc1ccccc1NC(=O)c1oc2ccccc2c1NC(=O)C1CCCC1 was read as CDC25B-CDK2 inh -0.66 and TAR Tat displ 1.4.
Cc1nc2ccc(S(=O)(=O)NCC(=O)N(C)Cc3ccco3)cc2s1 was read as CDC25B-CDK2 inh 1.8 and TAR Tat displ 0.36.
Screening COc1ccc(S(=O)(=O)N2CCCN(S(=O)(=O)c3ccc(OC)cc3)CC2)cc1 returned CDC25B-CDK2 inh -0.58 and TAR Tat displ 1.2.
`c1ccc(-c2cn3ccc4ccccc4c3n2)cc1` gave CDC25B-CDK2 inh -0.93.
Screening CN(Cc1ccccc1)c1nnc(NC(=O)Nc2ccc3c(c2)OCCO3)s1 returned CDC25B-CDK2 inh -0.57 and TAR Tat displ 3.6.
O=C(NCC1CCCCC1)C1CCCN(c2cnccn2)C1 (stereo unspecified) was read as CDC25B-CDK2 inh -0.2 and TAR Tat displ 1.6.
For CCCc1nc(SCc2cc(=O)n3nc(C4CC4)sc3n2)n[nH]1 the results were TAR Tat displ 0.54.
`O=C(NCCC1=CCCCC1)C1CCCN(S(=O)(=O)N2CCOCC2)C1` (stereo unspecified) gave TAR Tat displ 0.58.
Screening CSc1sc(C(=O)NN)cc1-c1nc(C)cs1 returned CDC25B-CDK2 inh -2.5.
`CCc1nnc2c3ccccc3nc(Nc3ccc(OC)cc3)n12` gave CDC25B-CDK2 inh -0.68 and TAR Tat displ -0.72.
For CCn1c(=O)/c(=C2\Sc3ccccc3N2C)s/c1=C\c1cccc[n+]1C the results were TAR Tat displ 1.
CCOc1ccc(-n2nnnc2CNS(=O)(=O)c2ccccc2Cl)cc1 was read as TAR Tat displ 0.7.
